Compound activity: PubChem BioAssay, several laboratories
BJeLR viability – BJeLR cell viability loss; BJeLR (HRASV12) viability, CellTiter-Glo ATP luminescence, 48 h; reference of the scale not given here; inhibition, % (no concentration beside the values); hit rate 0.17% among 300,000;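 active = replicate mean above 50%; inconclusive = above 50% but judged a plate artefact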;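 also: 50 nL library stock added to about 25 µL; numbers are from one replicate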
PrP UTR inh – inhibition of PrP 5' UTR reporter expression; cell-based PrP 5' UTR mRNA reporter, plate reader; inhibition, % (test concentration not listed); hit rate 0.35% among 340,000; AID 488862;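 active = every replicate at 50% or more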;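 also: 0 = median of the neutral control wells; tested in H4 reporter cells; numbers are from one replicate; inactives centre near -14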
Bead autofluor – flagged as autofluorescent in microsphere protease counterscreen. compound autofluorescence counterscreen, microsphere flow cytometry; stronger effect = higher value. fluorescence intensity (test concentration not listed). hit rate 3.1% among 360,000;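 active = at least 3 SD above the mean of all compounds, about 16000 in these data; inconclusive = too few beads counted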;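 also: 100 nL of 1 mM stock went into each well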
Sa RN4220 lethal – S. aureus RN4220 growth inhibition; OD600, 16 h; inhibition, % (test concentration not listed); hit rate 0.33% among 330,000;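 active = z-score of -3 or lower and OD600 up to 0.18 on both plates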;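 also: plate controls were untreated cells for no effect and reference antibiotic for full effect; stock transfer was 100 nL into about 80 µL; one replicate is shown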
Mtb hypoxia rep – inhibitors of hypoxia-regulated fluorescent reporter in Mycobacterium tuberculosis; fluorescence inhibition, % (test concentration not listed); AID 1159583; hit rate 0.1% among 300,000; M. tuberculosis hypoxia-regulated fluorescent reporter, fluorescence;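 active = 35 to 45% if threefold the growth effect, above 45% if 1.5-fold the growth effect; inactive = the rest, general growth blockers included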;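 also: wells of about 50 µL received 100 nL stock; 0% = vehicle wells and 100% = reference inhibitor wells; whole bacteria with a GFP reporter of the hypoxia response; strong numbers were not always called active; many hits fall short of the cut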
Sa ugtP lethal – compounds lethal to S. aureus RN4220 ugtP deletion mutant; OD600 growth, 16 h; some inactives read as strong as hits; growth inhibition, % (no concentration beside the values); hit rate 0.54% among 330,000;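 active = z-score under -3 and OD600 up to 0.15 on both plates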;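 also: plate controls were untreated wells for no effect and antibiotic for full effect; wells of about 80 µL received 100 nL stock; the first replicate is given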
Mtb hypoxia rep growth – also measured in Mtb hypoxia rep; calls as there; growth inhibition, %; measured here: M. tuberculosis growth (absorbance);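 0% = vehicle and 100% = reference antibiotic; read after six days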
An asterisk follows results filed as active; ? = inconclusive; nt = no result given.

SMILES | BJeLR viability | PrP UTR inh | Bead autofluor | Sa RN4220 lethal | Mtb hypoxia rep | Mtb hypoxia rep growth | Sa ugtP lethal
CCC(CO)Oc1cc(NCc2ccccc2C)c2ncn(C(C)C)c2c1 (stereo not given) | nt | -9 | 3330 | 2.4 | 8 | 6 | -10
CCN(CC)S(=O)(=O)c1ccc(/C=C/C(=O)OCC(=O)Nc2cccc3ccccc23)cc1 | 9 | 9 | 2719 | 4.2 | 4 | 8 | 2
CN(C)CCN(C(=O)C1CCN(S(=O)(=O)c2cccs2)CC1)c1nc2c(F)cccc2s1 | 9 | -4 | 5791 | 1.8 | -3 | 2 | 3
C/C(N)=C(/C#N)C(=O)COC(=O)c1cccc(C)c1O | 9 | -33 | 4912 | 6.1 | 1 | 4 | 18
COc1ccc(CC(=O)N(CC2CCCO2)c2nc3ccccc3s2)cc1 (stereo not given) | 11 | -34 | 10792 | 5.5 | 2 | 3 | 13
CCOC(=O)c1c(C)[nH]c(C(C)=NNC(=O)c2cccs2)c1C | nt | -72 | 4539 | 6.4 | 2 | -3 | -4
CN(C(=O)CCNC(=O)Cn1ccc2ccccc2c1=O)c1ccc(Br)cc1 | -17 | -19 | 6183 | 3.5 | -1 | -1 | 4
C[C@H]1CN=C(N(C)C)N1CCCC1CCCC1 | nt | -13 | 4153 | -15 | 11 | 16 | -2
C1=C(N2CCOCC2)/C(=C/c2nc3ccccc3[nH]2)CC1 | 3 | -17 | 5060 | 0.7 | nt | nt | 1
CC1(C)Cc2c(cnn2-c2ccc(F)cc2)C(NC(=O)CCC(F)(F)F)C1 (stereo not given) | 2 | -13 | 3217 | 4.4 | 12 | 4 | 6
CCOC(=O)N1CCC(NC(=O)c2cc(C(=O)Nc3cccc(OC)c3)ccc2CO)CC1 | -14 | 7 | 2923 | 7.7 | nt | nt | 3
COc1cccc(CNC(=O)CCC2CCCN(Cc3cc(Cl)ccc3O)C2)c1 (stereo not given) | -2 | -28 | 4594 | -1.8 | 11 | 2 | 9
Brc1ccccc1-c1nnc(CSc2nnnn2-c2ccccc2)o1 | -10 | -34 | 6738 | 11 | 5 | 3 | 6
Cc1noc(C)c1COc1ccccc1C(=O)Nc1cccc(S(=O)(=O)N(C)C)c1 | 10 | -7 | 5502 | nt | nt | nt | nt
Cc1ccc(C(=O)N2CCOCC2)cc1S(=O)(=O)N1CCOCC1 | 2 | -20 | 5328 | 1.1 | -6 | -3 | 2
Cc1ccccc1OS(=O)(=O)c1cn(C)c(=O)n(C)c1=O | 20 | -11 | 4179 | 6.6 | 19 | 3 | 6
Cc1cc(C)nc(NC(=O)CSc2nn(C)c(=S)s2)n1 | -12 | -106 | 2987 | -2.0 | nt | nt | 3
O=C(CSc1nc2cc(Cl)ccc2s1)c1cc2ccccc2o1 | -7 | 3 | 19577* | 16 | 3 | 2 | 27
Cc1ccc(NC(=O)CCNS(=O)(=O)c2ccc3c(c2)oc(=O)n3C)cc1 | -10 | -9 | 11446 | 3.2 | 6 | 14 | -6
Cc1ccc(NC(=O)c2onc(C)c2Cl)cc1 | -4 | -90 | 5838 | 6.1 | 0 | 0 | 3
CCN(CC)C(=S)Nc1ccc([N+](=O)[O-])cc1 | -5 | -14 | 2451 | 2.0 | -9 | 0 | 1
CN(Cc1ccccc1NS(=O)(=O)c1ccc2ccccc2c1)C1CCCCC1 | -6 | -7 | 4333 | 0.9 | 8 | 2 | 0
Cc1cccc(N2CCN(c3nc(C)cc(C)c3C#N)CC2C)c1 (stereo not given) | -7 | -20 | 4607 | -3.0 | 13 | 5 | -5
CCOC(=O)[C@@H]1[C@H]2COc3ccccc3[C@@H]2N2C(=O)N(c3ccc(OC)cc3)C(=O)[C@]12C | 6 | 6 | 4123 | nt | nt | nt | nt
CSc1nc(C)c(Br)c(N2CC2)n1 | nt | -8 | 5874 | 0.9 | 4 | 9 | 1

Four records picked at random from the list so far:
SMILES | BJeLR viability | PrP UTR inh | Bead autofluor | Sa RN4220 lethal | Mtb hypoxia rep | Mtb hypoxia rep growth | Sa ugtP lethal
CCC(CO)Oc1cc(NCc2ccccc2C)c2ncn(C(C)C)c2c1 (stereo not given) | nt | -9 | 3330 | 2.4 | 8 | 6 | -10
CN(C)CCN(C(=O)C1CCN(S(=O)(=O)c2cccs2)CC1)c1nc2c(F)cccc2s1 | 9 | -4 | 5791 | 1.8 | -3 | 2 | 3
Cc1ccc(NC(=O)c2onc(C)c2Cl)cc1 | -4 | -90 | 5838 | 6.1 | 0 | 0 | 3
Cc1noc(C)c1COc1ccccc1C(=O)Nc1cccc(S(=O)(=O)N(C)C)c1 | 10 | -7 | 5502 | nt | nt | nt | nt

(further entries)
SMILES | BJeLR viability | PrP UTR inh | Bead autofluor | Sa RN4220 lethal | Mtb hypoxia rep | Mtb hypoxia rep growth | Sa ugtP lethal
COC(=O)c1ccccc1NC(=O)COc1ccc(S(=O)(=O)NC(C)C)cc1 | 8 | -57 | 4053 | 1.7 | 7 | 15 | -2
Cc1nc(NCc2ccc3c(c2)OCO3)c2oc3ccccc3c2n1 | -4 | -27 | 13043 | 5.8 | 25 | 9 | -9
O=C(NNC(=O)C(O)c1ccccc1)NC1CCCCC1 (stereo not given) | -5 | -23 | ? | 2.0 | 1 | -7 | 3
CC(=O)Nc1ccc(N/C=C/C(=O)C(C)(C)C)cc1 | 1 | -20 | 11112 | -0.6 | -1 | 4 | -4
Cc1ccc2nc(-c3ccccc3C)oc(=O)c2c1 | -11 | -20 | nt | 8.1 | 13 | 4 | -10
CC1CC(C)CN(c2ccc(NS(=O)(=O)c3ccccc3)cc2C(=O)O)C1 (stereo not given) | 20 | -4 | 5628 | 1.0 | 5 | 9 | 2
COc1cc2[nH]c(=S)nc(NCc3cccc(Cl)c3)c2cc1OC | -4 | -9 | 3690 | -1.4 | -5 | 4 | -9
COC(=O)c1c(NC(=O)c2cccc(S(=O)(=O)N3CCN(C)CC3)c2)sc(C)c1C | 4 | -12 | 5423 | 3.2 | 2 | -12 | 7
O=[N+]([O-])c1ccc(NN=Cc2sc(N3CCOCC3)nc2-c2ccccc2)c(S(=O)(=O)Nc2ccccc2Cl)c1 | nt | nt | nt | 1.9 | 18 | 6 | -7
O=C(Cn1cnc2c(OCc3ccccc3)ncnc21)N1CCN(c2ccccn2)CC1 | nt | 22 | 2988 | 1.6 | -4 | -1 | 1
CCCCn1nnnc1SCC(=O)N1CCCC1 | 9 | -35 | 3806 | 3.6 | 3 | -1 | 5
CC(C)Cc1nnc(NC(=O)CCC(=O)N2CCN(c3ccc([N+](=O)[O-])cc3)CC2)s1 | -1 | -15 | 6579 | 1.3 | 8 | -2 | 4
Cc1nc2ccccc2n1CCN1CCOCC1 | 4 | -23 | 4700 | 5.5 | 3 | -1 | 10
CC(=O)c1ccc([C@@H]2C[C@]34CN(Cc5cccc(C(F)(F)F)c5)S(=O)(=O)[C@H]3C[C@H]2O4)cc1 | -2 | -21 | 3564 | nt | nt | nt | nt
S=c1nc(-c2ccccc2Cl)[nH][nH]1 | -13 | -6 | 4494 | -2.1 | -5 | 3 | 1
Cc1ccc(S(=O)(=O)NCCCCCC(=O)N(C)C)cc1 | -3 | -10 | 19200* | 5.5 | 5 | 15 | 2
Cc1ccc(OCCN(C)C(=O)c2cc(COc3ccc(F)cc3F)on2)cc1 | -1 | -14 | ? | -2.9 | -2 | 1 | -2
CC(=O)NC1C(c2nc3ccccc3s2)=C(c2ccccc2)C(=O)N1c1ccc(C)cc1 (stereo not given) | 4 | -35 | 4253 | 22 | -2 | 5 | -15
CCOC(=O)C1C(=O)NC(C(=O)OCC)(C(=O)OCC)C1C(C)CC (stereo not given) | nt | -10 | 3639 | 5.6 | 4 | 9 | 2
CC(C)CCn1c(=O)c2ccccc2n2c(CN3CCOCC3)nnc12 | 3 | -1 | 3934 | -0.6 | 7 | 2 | 1
COc1ccc(/C=C2\SC(=O)N(CC(=O)Nc3cccnc3)C2=O)cc1OC | 5 | 1 | 2627 | 2.7 | 18 | -3 | 11
NC(=O)NC(=O)CSc1nc(-c2ccccc2)c(-c2ccccc2)n1CC1CCCO1 (stereo not given) | 0 | -7 | 3193 | 3.5 | 3 | 2 | -6
Cc1cccc(C(=O)N/C(=C/c2ccco2)C(=O)N2CCCCCC2)c1 | -2 | -14 | 4566 | 2.1 | 1 | -7 | 1
CCn1c(SCC(=O)NCC2CCCO2)nnc1-c1ccccc1OC (stereo not given) | nt | -6 | 8029 | 5.0 | -8 | -3 | 10
O=C(O)Cn1cc(/C=c2/sc3nc4ccccc4n3c2=O)c2ccccc21 | -3 | -77 | 4064 | nt | nt | nt | nt
Next part
SMILES | BJeLR viability | PrP UTR inh | Bead autofluor | Sa RN4220 lethal | Mtb hypoxia rep | Mtb hypoxia rep growth | Sa ugtP lethal
O=C(CN1CCN(c2ccccc2O)CC1)Nc1ccc([N+](=O)[O-])cc1Br | -9 | 10 | 3258 | 16 | -8 | 4 | -2
COc1ccccc1CNS(=O)(=O)c1c(C)[nH]c(=O)[nH]c1=O | -3 | -35 | 10908 | 7.8 | 15 | 4 | 15
COc1ccc2c(=O)c3ccccc3oc2c1 | 6 | -36 | 5184 | 10 | nt | nt | 8
CCCN(CCC)C(=O)CCS(=O)(=O)c1cccc2nsnc12 | -18 | -7 | 3401 | -0.2 | 1 | 1 | -6
CSc1nc(SCC(=O)NCc2ccco2)c2c3c(sc2n1)CN(C)CC3 | 6 | -16 | 7924 | 3.8 | 3 | -4 | 1
CCOc1ccc(C(=O)N(CN2CCCC2=O)c2cccc(Cl)c2)cc1 | 3 | -12 | 4259 | 15 | 1 | 10 | 8
CC(=O)Nc1ccc(C=NNc2ccc(C(=O)c3c(C)cc4ccccn34)cc2[N+](=O)[O-])cc1 | nt | nt | nt | 4.9 | 1 | -2 | 8
CN(C)C(=O)c1ccc(NC(=O)CN2CCc3cc4c(cc3C2)OCCCO4)cc1 | 3 | -2 | 5484 | 0.7 | 3 | 18 | -1
O=C(c1nc2ncccn2n1)N1CCc2ccccc2C1 | 3 | -15 | 3363 | -12 | 14 | 1 | -2
Cc1nnc(SCC(=O)Nc2ccccc2)n(N)c1=O | 6 | -19 | 3485 | 3.3 | 9 | 5 | 3
O=C(Nc1ncccc1O)c1cccc(S(=O)(=O)N2CCN(c3ccc(F)cc3)CC2)c1 | nt | 3 | nt | 1.8 | -6 | 10 | -3
COC(=O)CSc1nnc(SCc2ccc(Cl)cc2)s1 | -2 | -15 | 6031 | 2.7 | 6 | 12 | 2
Cc1cccc(CCNC(=O)C2CCC(=O)N2Cc2ccc(F)cc2)c1 (stereo not given) | -15 | -12 | 10967 | 0.2 | -5 | 11 | -7
Cc1nonc1C(=O)N/N=C/c1ccc([N+](=O)[O-])o1 | -3 | -25 | 4274 | nt | nt | nt | nt
CCC(C(=O)NCc1ccncc1)c1ccccc1 (stereo not given) | 4 | -10 | 2340 | 2.2 | 3 | -6 | 8
COc1ccc(NC(=O)C2CCN(S(=O)(=O)c3ccc(N4CCCC4=O)cc3)CC2)c(OC)c1 | -1 | -2 | 5033 | -3.1 | -7 | 8 | -3
CCC1CCCCN1C(=O)COc1cc(=O)n(C)c2ccccc12 (stereo not given) | 6 | -20 | 5889 | 4.1 | nt | nt | 10
Cc1ccccc1Cn1c(O)c(N=NC(=S)Nc2ccccc2F)c2ccccc21 | 6 | 11 | 3885 | -5.7 | -2 | 7 | 1
Cc1ccc(C(=O)Nc2c(N)nc(SCC(=O)NCC3CCCO3)[nH]c2=O)cc1 (stereo not given) | -9 | -14 | 4181 | 1.8 | 12 | 2 | 6
CCn1c(C)c(CS(=O)(=O)c2ccccc2)[nH]c1=O | 0 | -22 | 3517 | 2.8 | -1 | 6 | 3
COC(=O)c1cc(OC)c(OC)cc1NC(=S)N1CCCCC1 | nt | -16 | 20422* | 4.8 | 3 | 7 | 6
Cc1nn(C)c(C)c1C=NNC(=O)CCn1nc(C)c([N+](=O)[O-])c1C | nt | nt | nt | 4.2 | 12 | 3 | 2
COc1cccc(CNC(=O)CSc2ccc(-c3ccccn3)nn2)c1 | -4 | 2 | 3472 | 3.0 | 7 | 0 | 10
Cc1cc(NC(=O)CSc2nnc(-c3ccco3)n2Cc2ccccc2)no1 | 3 | -11 | 3763 | 3.4 | nt | nt | -4
CC(C)NC(=O)NS(=O)(=O)c1cnccc1NC1CC2CCC1C2 (stereo not given) | 1 | -19 | 5028 | 4.6 | nt | nt | -3
Cc1cc(S(=O)(=O)N2CCCC2)ccc1OCC(=O)NCc1ccccn1 | -3 | -13 | 4803 | 3.0 | 8 | 0 | 7
